Screens (PubChem)
NPYLR7 agonist – activates Aedes aegypti NPYLR7 receptor; HEK293T NPYLR7/Galpha15, GCaMP6s calcium fluorescence; activation, % at 10 µM; 270,000 compounds, 0.15% hits; in the data active = activation above about 40%;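 also: 0% = vehicle and 100% = reference agonist at the receptor; some compounds past the cut are filed as inactive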
NPYLR7 agonist max-min – second read-out of NPYLR7 agonist, no call of its own (marks repeat the call); activation, %; measured here: Max-Min RFU normalised activation; some inactives read as strong as hits;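 span of the calcium signal over five minutes; 0% = vehicle and 100% = native peptide agonist; compound fluorescence can raise it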
* hit, by the source's call; & = joins results of further samples. The list is partial. The share of hits here may be higher or lower than overall.

SMILES	NPYLR7 agonist	NPYLR7 agonist max-min
O=c1[nH]c(Cn2cc(Br)cn2)nc2ccsc12	-23	-24
Cc1ccc(NC(=O)N2CCSC2c2cccc(F)c2)cc1 (stereo not drawn)	10	16
CCN1CCN(c2c(CN(CCOC)C(=O)c3ccccc3Br)c(C)nn2-c2cccc(F)c2)CC1	1	7
COc1cccc(C2c3[nH]c4ccccc4c3CCN2Cc2cccc(C(C)=O)c2)c1OC (stereo not drawn)	7	6
O=c1[nH]n(CCc2ccccn2)c(=O)c(Cl)c1Cl	-5	-8
CCSCCn1nc(C2CC2)cc(C(F)(F)F)c1=O	4	4
CCn1nc(C)c(CNC(=O)c2cn(Cc3cccc(Cl)c3)nn2)c1C	16	1
CC(C)[N+]1(C)C2CC[C@@H]1CC(OC(=O)C(CO)c1ccccc1)C2 (stereo partly drawn)	1&-1	-7&-9
Cn1nc(C(C)(C)C)cc1NC(=O)C1(C)CCN1C(=O)Cc1ccc(-c2ccccc2)cc1 (stereo not drawn)	-1	-4
O=C1Cc2cc(C3=CSC4=NS(=O)(=O)CCN34)ccc2N1	6	5
CCOC(=O)C1(CCCc2ccccc2)CCN(C(=O)C#Cc2ccccc2)CC1	16&-2	4&5
COc1cc2c(cc1OC)C(CNC(=O)Cc1ccccc1)N(C(=O)Nc1ccccc1F)CC2 (stereo not drawn)	-2	4
O=c1[nH]c(C2CSCCS2)nc2cc(F)c(F)cc12 (stereo not drawn)	1	0
CC(C)(C)c1ccc(CC(=O)N2CCC2(C)C(=O)NCc2ccc3c(c2)OCO3)cc1 (stereo not drawn)	-3	-8
FC(F)(F)c1cccc(NC(=S)N2CCC(c3ccccc3)CC2)c1	-5	-13
COCCN(Cc1ccc(OS(=O)(=O)c2ccc(NC(C)=O)cc2)cc1)C(=O)c1ccco1	-3	7
Cc1cccc(NC(=O)NCCOc2ccc3nnc(-c4ccccc4)n3n2)c1C	-4	-5
CC(=O)c1ccc(N(S(C)(=O)=O)S(=O)(=O)c2ccc(Cl)cc2)cc1	0	0
CCC(C(=O)NC1CCSCC1)N(CC)CC (stereo not drawn)	4	2
COc1cccc(NC(=O)C2(C)CCN2Cc2cccc3c2OCO3)c1 (stereo not drawn)	7	0

A section taken from the entries so far:
SMILES	NPYLR7 agonist	NPYLR7 agonist max-min
O=c1[nH]c(Cn2cc(Br)cn2)nc2ccsc12	-23	-24
Cc1ccc(NC(=O)N2CCSC2c2cccc(F)c2)cc1 (stereo not drawn)	10	16
CCN1CCN(c2c(CN(CCOC)C(=O)c3ccccc3Br)c(C)nn2-c2cccc(F)c2)CC1	1	7
COc1cccc(C2c3[nH]c4ccccc4c3CCN2Cc2cccc(C(C)=O)c2)c1OC (stereo not drawn)	7	6
O=c1[nH]n(CCc2ccccn2)c(=O)c(Cl)c1Cl	-5	-8
CCSCCn1nc(C2CC2)cc(C(F)(F)F)c1=O	4	4
CCn1nc(C)c(CNC(=O)c2cn(Cc3cccc(Cl)c3)nn2)c1C	16	1
CC(C)[N+]1(C)C2CC[C@@H]1CC(OC(=O)C(CO)c1ccccc1)C2 (stereo partly drawn)	1&-1	-7&-9
Cn1nc(C(C)(C)C)cc1NC(=O)C1(C)CCN1C(=O)Cc1ccc(-c2ccccc2)cc1 (stereo not drawn)	-1	-4
O=C1Cc2cc(C3=CSC4=NS(=O)(=O)CCN34)ccc2N1	6	5
CCOC(=O)C1(CCCc2ccccc2)CCN(C(=O)C#Cc2ccccc2)CC1	16&-2	4&5
COc1cc2c(cc1OC)C(CNC(=O)Cc1ccccc1)N(C(=O)Nc1ccccc1F)CC2 (stereo not drawn)	-2	4
O=c1[nH]c(C2CSCCS2)nc2cc(F)c(F)cc12 (stereo not drawn)	1	0
CC(C)(C)c1ccc(CC(=O)N2CCC2(C)C(=O)NCc2ccc3c(c2)OCO3)cc1 (stereo not drawn)	-3	-8
FC(F)(F)c1cccc(NC(=S)N2CCC(c3ccccc3)CC2)c1	-5	-13
COCCN(Cc1ccc(OS(=O)(=O)c2ccc(NC(C)=O)cc2)cc1)C(=O)c1ccco1	-3	7
Cc1cccc(NC(=O)NCCOc2ccc3nnc(-c4ccccc4)n3n2)c1C	-4	-5
CC(=O)c1ccc(N(S(C)(=O)=O)S(=O)(=O)c2ccc(Cl)cc2)cc1	0	0
CCC(C(=O)NC1CCSCC1)N(CC)CC (stereo not drawn)	4	2
COc1cccc(NC(=O)C2(C)CCN2Cc2cccc3c2OCO3)c1 (stereo not drawn)	7	0

The results go on.
SMILES	NPYLR7 agonist	NPYLR7 agonist max-min
CC(C)CN1C(=O)C2(CCCC2)NC12CCN(C(=O)C(C)(C)C)CC2	6	3
Fc1cccc(-c2nc(CN3CCOC(Cn4cncn4)C3)co2)c1 (stereo not drawn)	11	9
CCOC(=O)c1nc2ccccc2nc1N1CCCN(C(=O)c2ccc([N+](=O)[O-])o2)CC1	3	-2
Cc1nc2sccn2c1-c1c(-c2ccccc2)ncn1CCC1CCCN1C (stereo not drawn)	14	2
CCOC(=O)c1cccc(NC(=O)C2=CC(C)(C)Oc3ccc(OC)cc32)c1	2	11
COC(=O)c1ccc(Cn2ncc(Cl)c(Cl)c2=O)o1	13	5
Cc1cc(C)nc(-n2ncc3c2CC(c2cccs2)CC3=O)n1 (stereo not drawn)	14	2
Cc1ccc(C)c(Cn2c(-c3ccccc3)c(CCNC(=O)c3cnn(-c4ccccc4)c3C)c3ccccc32)c1	-6	-11
Cc1ccc(C)c(S(=O)(=O)c2nnn3c2nc(N2CCC(C(N)=O)CC2)c2sccc23)c1	8	7
COC(=O)C(c1ccccc1F)C1C=CC(NC(=O)/C=C/c2ccccc2Cl)C1 (stereo not drawn)	4	6
OC(COCc1ccccc1)CN(Cc1ccccc1Cl)CC1CC(c2ccccc2Cl)=NO1 (stereo not drawn)	-4	-5
CCCNC(=O)N1CCc2cc(OC)c(OC)cc2C1CNC(=O)Cc1ccccc1 (stereo not drawn)	-3	3
O=C(NCc1cccnc1)c1csc(COc2ccccc2F)n1	1	3
COc1ccc(OCCSc2nnc(-c3ccc(OC)c(OC)c3)o2)cc1	-2	-5
O=C(CCN1CCCC1c1ccsc1)N1CCc2ccccc21 (stereo not drawn)	7	1
CN(C)c1ccc(CN2CCC(n3cc(-c4cccnc4)nn3)CC2)cc1	3	2
O=C(NCC1CCN(c2nc(Cc3ccc(Cl)cc3)ns2)CC1)c1ccccc1Br	5	14
O=c1/c(=C\c2cccnc2)sc2nc(-c3ccc(Br)cc3)nn12	-11	-15
O=C(CCCOc1cccc(Br)c1)NCc1ccc2c(c1)OCO2	-4	-6
CCOC(=O)c1cnc(C)nc1NCCc1cccc(OC)c1	19	18
CN(Cc1ncc[nH]1)C(=O)c1cnc(-c2ccccc2)nc1	4	2
CC1CC(NC2CCN(S(=O)(=O)C(C)C)CC2C)C(=O)O1 (stereo not drawn)	1	-1
CCCCN(CC(=O)N(CCOC)Cc1cccn1C)C(=O)c1ccc(C(F)(F)F)cc1	-5	-3
O=c1[nH]c2cc(Br)cnc2[nH]c1=O	15	7
CC(=O)N1N=C(c2ccc(Br)cc2)OC1(C)CC(=O)Nc1ccccc1 (stereo not drawn)	-5	-10
CCN(CCn1c(C)csc1=O)CC(=O)Nc1ccc(OC)cc1	0	10
CSc1nc2c(c(=O)n1-c1cc(C)cc(C)c1)SCC2	-12	-18
Oc1ccc(-c2cnc3c(c2)CCN3CCC(F)(F)F)cc1	2	-3
FC(F)(F)c1cccc(Oc2ccc3c(C4CC4)noc3n2)c1	-1	-1
Cc1ccc(-c2csc(NC(=O)C3CCS(=O)(=O)C3)n2)cc1C (stereo not drawn)	8	5
COc1ccc2c(c1)C(C)(Cc1ccccc1OC(F)(F)F)C(=O)N2 (stereo not drawn)	1	1
Cc1noc(C)c1C(=O)NCC1CCN(Cc2cccc(O)c2)CC1	10	4
O=C(CCc1nnc(-c2ccsc2)o1)N1CCCC(OCc2ccccn2)C1 (stereo not drawn)	3&3	1&-1
Nc1ncnc2sc3c(c12)CCCC3	2	4
COCCn1ccnc1[C@@H]1C[C@H](NC(C)=O)C[C@H](C2CCCCC2)O1	-1	-3
Cc1cc(C2=NNC(=NC3CC3)SC2)c(C)n1-c1ccccc1F	-2	-2
COc1ccccc1-c1cc(Cn2cc(-c3ccc(C)o3)nn2)on1	5	-3
Cc1ccc(CNC(=O)c2cc(Cl)ccc2F)n1C	5	2
COc1ccc(N2CCN(c3nc(Nc4ccc(C)cc4)c4cn[nH]c4n3)CC2)cc1	5	1
CCOC(=O)C1CCN(C(c2ccc(F)cc2)c2c(O)cc(C)n(CCOC)c2=O)CC1 (stereo not drawn)	6	1
CC(C)Sc1nnc(SCC(=O)N(C)C2CCS(=O)(=O)C2)s1 (stereo not drawn)	-3	-2
CCNC(=O)OC1CN(C(=O)c2ccco2)CCC(=O)N(C)c2ccccc21 (stereo not drawn)	6	16
CC(C)C1=NOC(CNC(=O)c2cc(-c3cccn3C)n[nH]2)C1 (stereo not drawn)	0	1
O=C1CSC(=S)N1N=Cc1ccc(-c2nc3ccccc3s2)o1	25	30
COc1ccc(-c2nc3scc(CCNS(=O)(=O)c4ccc(OC)cc4)n3n2)cc1	-3	1
COc1ccccc1-c1nnc(NC(=O)C2=COCCO2)o1	-5	-7
CC(NC(=O)N1CCN(Cc2ccon2)CC1)C(C)(C)C (stereo not drawn)	0	-2
Cc1c(I)cc(I)c(C)c1[N+](=O)[O-]	-6	-10
CCCSc1ncccc1C(=O)N(Cc1nc2cc(C)ccc2o1)Cc1cc(F)ccc1F	-1	-1
Cc1nnc(NC(=O)c2cc3ccccc3o2)s1	2	-4
Cc1cc(C)n2c(n1)nc(=S)n2CN1CCCC(C(F)(F)F)C1 (stereo not drawn)	0	5
c1ccc(CCc2nc(C34CC5CC(C3)CC(n3cncn3)(C5)C4)n[nH]2)cc1	2	-2
Cc1cc(C(=O)NS(=O)(=O)c2ccccc2Br)no1	12	6
Cc1[nH]c(-c2cc(Br)cs2)nc1-c1ccccc1	3	2
CCCCC(=O)OCc1nc2cc(C(F)(F)F)ccc2o1	1	-1
C[C@@H]1CN(Cc2cc3cc4c(cc3[nH]c2=O)CCC4)C[C@H](C)O1	-2	-5
CCS(=O)(=O)c1ccc2c(c1)N(Cc1ccc(OC(F)(F)F)cc1)C(=O)C(C)O2 (stereo not drawn)	7	5
O=C(CCNS(=O)(=O)c1cccs1)OCC(=O)c1ccc(Cl)s1	0	5
O=C(C1CCN(C2=NS(=O)(=O)c3ccccc32)CC1)N1CCN(c2ncccn2)CC1	1	2
CCOc1ccccc1-c1nc(Cn2ccn3nc(-c4ccc(OC)cc4)cc3c2=O)c(C)o1	6	4

(more compounds)
SMILES	NPYLR7 agonist	NPYLR7 agonist max-min
Cc1ccc(CCC(=O)N2CCn3nc(C(=O)N4CCN(C)CC4)cc3C2)cc1	6	-9
C/C=C/C(=O)N1CCc2cc(OC)c(OC)cc2C1c1ccccc1Cl (stereo not drawn)	11	2
COc1ccc(-c2cn3c(C(=O)Nc4nccs4)csc3n2)cc1	2	0
O=C(NCCCc1ccccc1)c1ccc2nc(-c3ccccc3)c(-c3ccccc3)nc2c1	-8	-13
CN(C)S(=O)(=O)c1cc(NC(=O)/C=C/C(=O)N2CCOCC2)ccc1Cl	9	8
CC(NC(=O)Cc1ccc2c(c1)OCCO2)c1ccc(-n2ccnc2)cc1 (stereo not drawn)	16	10
COCCCn1ccc2nc3ccn(-c4ccccn4)c(=O)c3cc2c1=O	-2	-3
CC(=O)N1CCC(C(=O)NCc2ccc(OCC3CCCO3)cc2)CC1 (stereo not drawn)	7	5
Cc1ccc(-c2nc3ccccn3c2NC(=O)c2ccccc2)cc1	-5	-5
O=C(c1csc(CSc2nnc(-c3ccncc3)n2-c2cccc(C(F)(F)F)c2)n1)N1CCN(c2cccc(Cl)c2)CC1	5	6
CCCCCCCCCCCC(=O)N1CCN(C(=O)c2cc(-c3ccc(OC)cc3)n(-c3ccc(F)cc3F)c2C)CC1	26	21
CCCc1cc(NCc2ccccc2)n2nc3nc(C)cc(C)c3c2n1	3	43
Cc1ccc(CN(Cc2ccco2)CC(O)COCc2ccco2)s1 (stereo not drawn)	22	28
Cc1nc(C(F)(F)F)ccc1C(=O)N1CCC1(C)C(=O)NS(=O)(=O)c1ccc(Cl)cc1 (stereo not drawn)	-1	0
